Bioassay records as filed in PubChem.
GALR2 ag = activates the human galanin receptor 2. 140,000 tested, 0.48% active. activation, %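 (tested at 5 µM)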. GALR2-expressing cells, agonist activation read-out. O43603;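 active = above mean plus 3 SD of all compounds, about 5% in these data, not always enough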;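 also: 0% = vehicle buffer wells and 100% = reference agonist at full effect; tested in CHO reporter cells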
Target sequence (O43603 whole entry, looked up): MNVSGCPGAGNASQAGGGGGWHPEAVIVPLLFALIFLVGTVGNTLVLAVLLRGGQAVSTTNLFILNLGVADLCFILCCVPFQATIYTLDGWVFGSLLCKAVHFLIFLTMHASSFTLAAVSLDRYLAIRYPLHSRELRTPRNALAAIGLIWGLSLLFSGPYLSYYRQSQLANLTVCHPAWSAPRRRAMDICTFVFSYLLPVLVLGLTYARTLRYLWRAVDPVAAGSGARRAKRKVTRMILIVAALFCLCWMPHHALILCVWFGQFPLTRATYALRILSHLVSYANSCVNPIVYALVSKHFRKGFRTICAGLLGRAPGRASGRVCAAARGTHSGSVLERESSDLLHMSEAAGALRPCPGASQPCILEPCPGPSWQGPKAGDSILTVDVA
RGS16-Gao HTS = regulators of human RGS16-Galphao interaction; bead-based flow cytometry RGS16-Galphao binding, fluorescence; actives lie on both sides; binding response (% of control), % at 10 µM; 220,000 tested, 0.38% active; AID 1441;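 active = below 25% or above 175%, edge rows of some plates excepted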;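 also: Galphao activated by GDP with aluminum fluoride before binding; 100% = wells without compound and 0% = beads without RGS; some results beyond the cut were filed as inactive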
Target sequence (O15492 whole entry, looked up): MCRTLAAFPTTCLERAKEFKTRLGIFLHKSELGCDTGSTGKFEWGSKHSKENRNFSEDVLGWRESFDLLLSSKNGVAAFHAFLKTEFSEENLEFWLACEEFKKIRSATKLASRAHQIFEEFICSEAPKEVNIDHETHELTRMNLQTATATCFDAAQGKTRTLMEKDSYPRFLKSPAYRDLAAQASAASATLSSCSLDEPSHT
Target sequence (P09471 whole entry, looked up): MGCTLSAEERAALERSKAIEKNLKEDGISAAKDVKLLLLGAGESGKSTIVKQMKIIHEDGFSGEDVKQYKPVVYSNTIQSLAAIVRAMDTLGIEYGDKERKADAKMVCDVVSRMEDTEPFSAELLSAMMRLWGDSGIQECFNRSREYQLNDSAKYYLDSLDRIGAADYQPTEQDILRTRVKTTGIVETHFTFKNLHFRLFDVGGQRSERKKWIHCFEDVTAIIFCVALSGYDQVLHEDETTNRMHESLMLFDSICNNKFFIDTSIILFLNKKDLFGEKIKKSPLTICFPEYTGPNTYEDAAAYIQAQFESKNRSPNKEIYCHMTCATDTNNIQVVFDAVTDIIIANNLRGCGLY
PKD1 kinase inh = blocks activity of human protein kinase D1; Q15139; PKD1 kinase fluorescence polarization assay; inhibition, %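 (about 10 µM by stock and volumes)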; 200,000 tested, 0.056% active;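 active = inhibition of 50% or more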;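 also: controls were vehicle for no effect and a reference inhibitor for full effect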
HSV augment = increases HSV replication in cells; 220,000 tested, 0.005% active; HSV replication augmentation in cells, fold increase; maximum fold increase;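 active = peak rise of 1.5-fold or more in the series; inconclusive = self-fluorescent or not available for retest; tested in PC3 cells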;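 also: first round at 10 µM; read as green reporter fluorescence; hits show the peak of a series up to 25 µM; 1 = signal of infected wells without compound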
Insulin prom inh = TRM-6 insulin promoter activity inhibition. TRM-6 cells (human fetal islet line), insulin promoter-eGFP reporter, imaging; reporter expression induced with tamoxifen. inhibition, % at 2 µM. 130,000 tested, 0.9% active;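 active = inhibition above the mean plus 3 SD, with well images judged a real hit on visual review, cut at about 60% in these data, passing the limit was not always enough; inconclusive = inhibition over the cutoff but images rejected on review; inactive = inhibition not above the cutoff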
Insulin prom inh cell count = recorded beside Insulin prom inh, whose call it bears; normalized cell count, %; measured here: cell count, toxicity; reference of the scale not given here;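 cells exposed to compound for 48 h; stained nuclei by imaging scaled within each plate; lower means fewer cells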
HSV augment primary fold = second read-out of HSV augment, no call of its own (marks repeat the call); fold increase; compound at 10 µM; measured here: primary screen fold increase 10 uM; tested in PC3 cells;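 GFP signal in the first replicate; 1 = infected wells without compound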
* marks the source's active call; other numbers are inactive results; i = inactive; u = inconclusive; x = not tested or not shown; [ ] = dose if it differs, or a comment.

SMILES	GALR2 ag	RGS16-Gao HTS	PKD1 kinase inh	HSV augment	HSV augment primary fold	Insulin prom inh	Insulin prom inh cell count
Cn1cc(CN2CCC(C(O)c3cccs3)CC2)c(-c2ccccc2F)n1 (centres undefined)	x	82	x	i	0.86	x	x
c1ccc(C[n+]2c(-c3ccccc3)csc2Nc2ccccc2)cc1	-1.1	100	-4	u	x	10	140
CC(=O)O/N=C(/C)c1ncc(C(F)(F)F)cc1N1CCOCC1	-0.2	103	-7	i	0.98	25	103
O=C(CN1CCC(Cc2ccccc2)CC1)NC(=O)NCc1ccco1	-0.6	96	11	i	1	x	x
CCCCN(CCCC)C(=S)N/N=C/c1c(C)[nH]n(-c2ccccc2)c1=O	-2.5	103	-4	i	0.99	x	x
COCCCn1c(SCC(=O)OC2CCCCC2)nnc1-c1cccs1	-0.9	41	-2	i	0.94	-12	58
Cc1cc(=O)n2c(-c3ccc(Cl)cc3)csc2n1	x	96	x	i	0.94	x	x
Cc1nn(Cc2ccc(F)cc2)c(C)c1NC(=O)c1cc(-c2ccc3c(c2)OCO3)on1	-3.0	103	-6	i	1	x	x
CN(Cc1ccccc1)S(=O)(=O)c1ccc2c(c1)NC(=O)CC(=O)N2	-1.1	99	-5	i	1.1	8	63
CC(C)(C)S(=O)(=O)/C(C#N)=C/Nc1ccccn1	x	98	x	i	0.95	x	x
Cc1ccc(S(=O)(=O)NC2=NCN(C3CCN(Cc4ccccc4)CC3)CN2)cc1	-1.3	100	1	i	0.91	x	x
CC1=C(C(=O)OCc2ccccc2)C(c2ccc(-c3ccccc3)cc2)NC(=O)N1CCCCCC(=O)O (centres undefined)	-0.7	108	-9	i	1.2	41	136
NC(=O)c1cnn(-c2ccc3ccccc3c2)c1N	x	99	-2	i	0.86	x	x
CCNC(=O)COC(=O)CCC(=O)c1ccc(F)cc1	x	108	x	i	1.1	x	x
Cc1ccc(C(=O)Nc2ccc(N3CCOCC3)nc2)cc1	0.9	105	-3	i	0.71	18	123
COC(=O)CNC(=O)CN1C(=O)N(c2ccc(Cl)cc2)C(N(O)C(=O)Nc2ccc(Cl)cc2)C1(C)C (centres undefined)	-1.9	99	0	i	0.94	24	66
Cc1ccc(N(CN2CCCC2=O)C(=O)c2ccc(OC(C)C)cc2)cc1	-1.9	105	1	i	0.74	-67	62
N#C/C(=C\c1c(Cl)cccc1Cl)c1nn(-c2ccccc2)c(-n2cccc2)c1C#N	x	100	x	i	0.92	x	x
COc1ccccc1N1CCN(/N=C\c2ccc(C)o2)CC1	-0.8	81	-7	i	0.9	-8	72
CCOc1ccccc1N1CCN(Cc2cn[nH]c2-c2ccc(F)cc2)CC1	x	101	x	i	1	x	x
COc1cccc(C(=O)NNC(=O)c2ccccc2-n2cccc2)c1	x	99	-3	i	1	x	x
COc1ccccc1NC(=O)CN(C)S(=O)(=O)c1ccc2c(c1)CCC(=O)N2	-1.0	103	9	i	0.94	x	x
C/C(CCc1ccccc1)=N/NC(=O)C(=O)NCc1ccccc1	x	90	-2	i	1.1	-53	69
CCCCOCCCNC(=O)CC(C)c1ccccc1 (centres undefined)	1.2	94	-5	i	0.98	17	91
O=C(Nc1cccc(Cl)c1)Nc1cc(S(=O)(=O)N2CCOCC2)ccc1N1CCCC1	-1.5	63	-17	i	0.99	32	92

Following part
SMILES	GALR2 ag	RGS16-Gao HTS	PKD1 kinase inh	HSV augment	HSV augment primary fold	Insulin prom inh	Insulin prom inh cell count
CCN=C(NCC)SC1CC(=O)N(c2ccc(OC)cc2)C1=O (centres undefined)	0.0	103	1	i	0.81	-133	128
O=C(CSc1n[nH]c(=O)n1C1CC1)N1N=C(c2ccc(Cl)cc2)CC1c1ccco1 (centres undefined)	x	100	x	i	0.65	x	x
COc1ccc(CNC(=O)COC(=O)/C=C/c2cccs2)cc1	-0.8	100	-5	i	0.93	0	131
O=C1CC(c2c[nH]c3ccccc23)C(=O)N1 (centres undefined)	-4.2	99	0	i	0.88	29	90
C[C@@H]1CN(CCCn2c3ccccc3c3ccccc32)C[C@H](C)N1	x	98	x	i	0.64	x	x
N#CC1=C2N=C(N)c3ccccc3N2C2=C(C(=O)CCC2)C1c1ccc(F)cc1 (centres undefined)	x	97	x	i	0.98	x	x
O=C(NCCCN1CCN(CCCNC(=O)c2cccc([N+](=O)[O-])c2)CC1)c1cccc([N+](=O)[O-])c1	-0.8	100	-4	i	1	-28	109
CCCCCCNc1nc(NCc2ccco2)nc(OCC)n1	-0.8	98	-2	i	1	-26	79
O=C(CN(Cc1ccc2c(c1)OCO2)C(=O)CNC(=O)c1ccco1)NC1CCCCC1	-0.7	103	-5	i	0.98	x	x
NC(=S)Nc1nc2ccccc2s1	x	103	9	i	0.9	14	133
COc1cc(/C=N/NC(=O)c2ccc(-n3cccc3)cc2)ccc1O	0.2	-86	-5	i	0.89	71*	79*
CC(C)(C)SCCNC(=O)Nc1ccccc1	-1.1	103	-9	i	0.95	14	49
CC(=O)Nc1cccc2c1OCCO2	-0.1	95	-2	i	0.89	14	160
CC1(C)N=C(/C=N/O)CN1O	-0.9	100	-19	i	0.83	-38	88
NC(=O)c1nn(-c2ccccc2)c(=O)cc1O	-1.4	97	-4	i	1	14	126
CC1(c2ccc(OC(F)F)cc2)NC(=O)N(/N=C/c2c(O)ccc3ccccc23)C1=O (centres undefined)	2.9	100	-19	i	1.1	-15	93
COc1ccc(C(=O)/C=C/C(=O)N(CC(=O)NC2CCCCC2)Cc2ccc(F)cc2)c(O)c1	x	95	-3	i	0.6	x	x
CC(C)(/C=N/O)/[N+]([O-])=C/c1ccccc1C(F)(F)F	-1.8	125	-2	x	x	23	139
O=C(O)/C=C\C(=O)Nc1cccc(C(=O)Nc2cccc(O)c2)c1	x	106	1	i	0.95	x	x
C=CCNC(=O)C(C#N)c1nc2ccccc2nc1N1CCCCCC1 (centres undefined)	3.1	97	18	i	1.2	13	48
O=C(Nc1cnn(Cc2ccc(F)cc2)c1)c1cc(-c2ccco2)on1	x	103	-7	i	1	x	x
Cc1ccc(NC(=O)C2C(c3ccccc3)C2(Cl)Cl)c(C)c1 (centres undefined)	-1.8	76	-4	i	1	24	153
Cc1ccccc1NC(=O)Cc1cn(C)c2ccccc12	-1.4	110	-13	i	0.96	-50	116
COc1ccccc1CN1CCSCC1	-0.4	102	1	i	0.79	23	174
Cc1cc(OCC(=O)c2ccc(F)cc2)ccc1N1C(=O)CCC1=O	-2.3	104	-10	i	0.85	-7	167

More records:
SMILES	GALR2 ag	RGS16-Gao HTS	PKD1 kinase inh	HSV augment	HSV augment primary fold	Insulin prom inh	Insulin prom inh cell count
Cc1ccc(CN2C(=O)N/C(=C/c3cc(C)n(-c4ccccn4)c3C)C2=O)cc1	-0.1	99	11	i	1.3	31	127
Cc1cc(C)c(/C=C(\C#N)C(N)=S)c(C)c1	-1.1	116	3	i	0.93	-436	51
Cc1ccc(/C=c2\sc3nc(-c4ccccc4Br)nn3c2=O)o1	0.3	108	-6	x	x	24	100
CCc1ccc2c(c1)/C(=N/OC)C(=O)N2	-1.7	92	-7	i	0.98	8	151
O=C(CC(=O)N/N=C/c1ccccc1)NCc1ccccc1	x	111	3	i	0.89	-56	137
O=[N+]([O-])c1ccc(C(=S)N2CCC(Cc3ccccc3)CC2)cc1	-1.3	98	-4	i	1.3	x	x
COc1cc(/C=C2\OC(=O)c3c(OC)cccc32)ccc1O	1.2	95	-3	u	x	-22	77
C/C(Cl)=C/Cn1c(SCCN2CCOCC2)nc2c1c(=O)[nH]c(=O)n2C	-0.7	96	-4	i	0.89	31	92
Cn1c2ccc(F)cc2c2ncn(Cc3ccco3)c(=O)c21	-0.2	97	-5	i	0.89	40	196
O=C(c1cccs1)N1N=C(c2ccc(O)cc2)CC1c1ccccc1 (centres undefined)	-0.6	52	-2	i	0.86	-25	91
Cc1csc(NC(=O)c2cc(-c3ccco3)nc3ccccc23)n1	-0.7	100	-2	i	1.1	x	x
Cc1ccc2cccc(Oc3ncnc4scc(-c5ccccc5)c34)c2n1	-0.5	104	-2	i	1.1	x	x
c1ccc(-c2n[nH]c(-c3ccccc3)c2-c2nc3ccccc3[nH]2)cc1	-3.5	102	-7	i	0.9	-43	260
Cc1ccc(C(=O)COC(=O)CCC(=O)Nc2cccc(Cl)c2)cc1[N+](=O)[O-]	-1.7	104	-8	i	0.79	x	x
Cc1ccc(O)c(C(=O)c2cc(C#N)c(=O)n(-c3nccs3)c2)c1	x	90	-6	u	x	x	x
O=C(NCCc1ccccc1)C(c1ccncc1)N(C(=O)c1csnn1)C1CC1 (centres undefined)	-1.1	x	-5	i	0.96	25	71
COc1ccccc1C(=O)COC(=O)c1ccccc1OCC(=O)Nc1ccc(SC(F)F)cc1	-1.5	107	9	i	0.91	-6	118
CCCOc1ccc(C(=O)NCc2cccnc2)cc1	-2.2	104	8	i	0.87	-38	76
COC(=O)c1nn(-c2ccc3c(c2)OCO3)cc1O	-1.0	99	5	i	1.1	28	63
CN(Cc1ncc[nH]1)Cc1cn(-c2ccccc2)nc1-c1ccc2c(c1)OCO2	x	88	x	i	0.9	x	x
COc1ccc(S(=O)(=O)N(C)C)cc1NC(=O)CSc1nnc(-c2cccnc2)o1	x	98	-2	i	0.9	x	x
O=C(COC(=O)c1ccc2ncsc2c1)NC(=O)c1ccccc1	x	106	5	i	0.94	25	109
CC1Cc2nc(SCC(=O)OCc3ccccc3)n(C)c(=O)c2S1 (centres undefined)	-0.5	136	1	i	0.92	x	x
CCOC(=O)N1CCN(C(=O)c2ccc3c(=O)n(-c4ccc(OC)cc4)c(=S)[nH]c3c2)CC1	-1.0	67	-1	i	1	12	109
CCCCn1c(CCn2nc(C)c(Br)c2C)n[nH]c1=S	-0.6	100	1	i	1.1	-47	102

Continuation.
SMILES	GALR2 ag	RGS16-Gao HTS	PKD1 kinase inh	HSV augment	HSV augment primary fold	Insulin prom inh	Insulin prom inh cell count
Cc1cc(C(=O)N2CCN(CCc3ccccc3)CC2)no1	-1.2	303*[activator]	-6	i	0.86	-458	58
O=[N+]([O-])c1cc2c(cc1C=Nc1ccccc1)OCO2	0.1	95	-3	i	0.88	12	98
Oc1nc(-c2ccc(Cl)cc2)n2ccncc12	x	99	8	i	1.2	-6	73
O=C(CN1CCN(S(=O)(=O)c2ccc(Br)cc2)CC1)Nc1ccccc1F	-2.1	102	-7	i	1	-77	55
CCn1cc(C(=O)OCc2ccccc2)c(=O)c2ccc(C)nc21	-1.7	98	0	i	1.1	-14	220
CC(=O)Nc1ccc(S(=O)(=O)N2CCSCC2)cc1	-0.2	98	-6	i	0.89	42	94
Nc1c(-c2cccc(Cl)c2)cnn1-c1cccc(C(F)(F)F)c1	-0.4	113	-5	i	0.73	x	x
Cc1ccc(NC(=O)NCCCN2CCCC2=O)cc1	-1.2	103	-6	i	0.93	43	150
COc1cccc(C2=NN(C(=O)c3cccs3)C(O)(C(F)(F)F)C2)c1 (centres undefined)	x	102	1	i	0.73	-7	102
O=c1c2ccccc2c(C=Nc2ccccc2O)c(O)n1-c1nccs1	x	100	x	u	x	x	x
Cc1ccc(/C=C/C(=O)NCCCn2ccnc2)cc1	x	104	2	i	0.9	-11	93
Cc1ccccc1N=C(NOCc1ccccc1)c1nonc1N	-1.0	108	-5	i	0.83	-6	68
Cc1ccc(OCCCN2C(=O)C(=O)c3cc(C)ccc32)cc1	x	114	-1	i	0.89	x	x
COC(=O)c1cc(=O)n(Cc2ccc3c(c2)OCO3)c(=Nc2ccc(F)cc2)s1	-0.6	98	1	i	0.93	x	x
O=C(CCCN1C(=O)CSc2ncccc21)N1CCN(c2cccc(C(F)(F)F)c2)CC1	-0.6	106	-16	i	0.96	0	99
O=[N+]([O-])c1cccc(-c2n[nH]c(=S)n2-c2ccc(Br)cc2)c1	x	98	-4	i	0.86	x	x

Given with each value named: three of the compounds above
O=[N+]([O-])c1cc2c(cc1C=Nc1ccccc1)OCO2
- GALR2 ag: 0.1
- RGS16-Gao HTS: 95
- PKD1 kinase inh: -3
- HSV augment: i
- HSV augment primary fold: 0.88
- Insulin prom inh: 12
- Insulin prom inh cell count: 98
Oc1nc(-c2ccc(Cl)cc2)n2ccncc12
- GALR2 ag: x
- RGS16-Gao HTS: 99
- PKD1 kinase inh: 8
- HSV augment: i
- HSV augment primary fold: 1.2
- Insulin prom inh: -6
- Insulin prom inh cell count: 73
Cc1ccc(OCCCN2C(=O)C(=O)c3cc(C)ccc32)cc1
- GALR2 ag: x
- RGS16-Gao HTS: 114
- PKD1 kinase inh: -1
- HSV augment: i
- HSV augment primary fold: 0.89
- Insulin prom inh: x
- Insulin prom inh cell count: x
